High-throughput results as filed in PubChem BioAssay.
KCNQ2 block: KCNQ2 potassium channel inhibitors, primary screen, cell-based, CHO-K1, FluxOR thallium flux, B-score (AID 2156) | Potassium voltage-gated channel subfamily KQT member 2 (Rattus norvegicus), O88943 | 20 min; hits give low values; only compounds with negative scores are shown here; some inactives read as strong as hits | B-score at 10 µM | hit rate 1.1% among 310,000;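 active = fluorescence ratio B-score at most minus 3 library SDs, with starting brightness B-score within 2 library SDs, cut at about -5.5 in these data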
Target sequence (O88943 whole entry, looked up): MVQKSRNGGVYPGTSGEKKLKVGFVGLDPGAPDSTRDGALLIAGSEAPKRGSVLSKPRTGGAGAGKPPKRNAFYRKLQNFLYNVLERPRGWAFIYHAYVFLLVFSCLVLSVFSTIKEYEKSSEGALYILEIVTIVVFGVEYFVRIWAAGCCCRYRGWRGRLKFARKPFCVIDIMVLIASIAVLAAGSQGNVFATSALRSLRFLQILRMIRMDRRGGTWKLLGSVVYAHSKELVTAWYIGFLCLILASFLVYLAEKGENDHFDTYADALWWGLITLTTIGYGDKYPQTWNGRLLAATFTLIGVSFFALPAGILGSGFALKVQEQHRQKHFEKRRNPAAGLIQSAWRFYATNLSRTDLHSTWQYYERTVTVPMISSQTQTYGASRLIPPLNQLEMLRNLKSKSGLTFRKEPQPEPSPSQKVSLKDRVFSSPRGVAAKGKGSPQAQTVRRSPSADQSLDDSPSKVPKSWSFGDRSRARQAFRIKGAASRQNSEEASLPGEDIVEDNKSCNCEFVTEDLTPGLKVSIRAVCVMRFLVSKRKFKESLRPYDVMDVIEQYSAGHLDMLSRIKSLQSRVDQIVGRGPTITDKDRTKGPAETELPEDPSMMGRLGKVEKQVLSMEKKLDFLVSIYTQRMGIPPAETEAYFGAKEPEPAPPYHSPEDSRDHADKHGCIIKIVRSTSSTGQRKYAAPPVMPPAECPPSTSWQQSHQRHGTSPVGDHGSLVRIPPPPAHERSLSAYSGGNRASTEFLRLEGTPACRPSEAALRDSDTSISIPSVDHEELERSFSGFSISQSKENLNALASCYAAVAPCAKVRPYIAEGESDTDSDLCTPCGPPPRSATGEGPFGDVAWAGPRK
KCNQ2 block baseline: second read-out of KCNQ2 block, no call of its own (marks repeat the call); B-score; measured here: initial fluorescence intensity artifact check;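 brightness before thallium and not channel activity; 0 = typical well and far values either way flag optical interference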
* hit, by the source's call; i = inactive. A portion of the library; rates above refer to the full screens.

Below each compound: KCNQ2 block, KCNQ2 block baseline
> COc1ccc(-c2cc(C(=O)OCC(=O)N(C)C)c3ccccc3n2)cc1
    i, 0.08
> CN(C)S(=O)(=O)c1ccc(Cl)c(NC(=O)CSc2nc3c(cc2C#N)C(=O)CCC3)c1
    i, 1.9
> CCOc1ccc(N(Cc2cc3ccc(C)cc3[nH]c2=O)S(=O)(=O)c2ccccc2)cc1
    i, 0.08
> CSc1ccc(CN(C)C(C)C(=O)NCC2CCCCC2)cc1 (configuration not stated)
    i, 0.01
> CCOC(=O)c1cc(Sc2ccccc2N)cc(C(=O)OCC)n1
    i, 1.3
> Brc1ccsc1-c1csc(-c2ccncc2)n1
    i, -0.28
> COc1ccc(OC)c(-c2csc(NC(=O)Cn3[nH]c(=O)c4ccccc4c3=O)n2)c1
    i, 0.01
> COCCCN(CC(=O)NCc1ccccc1)S(=O)(=O)c1ccc(C)cc1
    i, 1.4
> COCCn1c(SCC(=O)N2CCOCC2)nnc1-c1ccco1
    i, 0.27
> COc1ccccc1-c1c(C)nn2c(N3CCN(c4ccccc4OC)CC3)cc(C)nc12
    i, 2.1
> CC(=O)N/C(=C\c1ccccc1)C(=O)OCCCOC(=O)/C(=C/c1ccccc1)NC(C)=O
    i, -0.07
> Nc1nc(CN2CCCCCC2)nc(Nc2ccc(F)cc2)n1
    i, -0.79
> CC1CCN(Cc2nc(-c3ccc(Cl)cc3)no2)CC1
    i, 1.3
> CCCCN1C=C(C(=O)OC)C(c2ccccc2C(F)(F)F)C(C(=O)OC)=C1
    i, 1.1
> Cc1ccc(CN(C)C(=O)c2ccccc2Sc2ccccc2C#N)cc1
    i, 0.41
> CC1(C)Cc2cccc(OCC(=O)N3CCN(c4cccc(C(F)(F)F)c4)CC3)c2O1
    i, 0.36
> COc1ccc(N2C(=O)c3ccccc3NC2c2ccc(NC(C)=O)cc2)c(OC)c1 (configuration not stated)
    i, 2.7
> CC(C)S(=O)(=O)c1cnc(-c2cccnc2)nc1N
    i, 0.97
> Cc1cccc(NC(=S)N(CCCN2CCOCC2)C(C)c2cc3ccccc3o2)c1C (configuration not stated)
    i, 0.73
> CN(c1cccc(NC(=O)c2ccccc2N(C)S(=O)(=O)c2ccccc2)c1)S(C)(=O)=O
    i, 0.7
> Cc1nnc(NC(=O)CN2CC(C)OC(C)C2)s1 (configuration not stated)
    i, 1.2
> Cc1cc(S(=O)(=O)c2ccc([N+](=O)[O-])cn2)ccc1Br
    i, 0.36
> O=C(O)C(=O)/C(=C\c1cccc(Cl)c1)c1ccc2ccccc2n1
    i, 1.3
> O=c1oc2ccccc2cc1-c1ccc(O)cc1O
    i, 0.66
> CCOC(=O)N(Cc1ccccc1)C(C(=O)O)C(C(=O)O)N(Cc1ccccc1)C(=O)OCC (configuration not stated)
    i, -2.8
> FC(F)(F)c1cnc(Sc2ncn[nH]2)c(Cl)c1
    i, 1.4
> CC12CCC(C(=O)NCc3cccnc3)(OC1=O)C2(C)C (configuration not stated)
    i, 2.5
> O=C(NNC1=NCCC1)c1cccc(S(=O)(=O)N2CCOCC2)c1
    i, -0.91
> COC(=O)c1cccc(NC(=O)c2nn(C(C)C)c(=O)c3ccccc23)c1
    i, -2
> COc1ccc(-c2cc3ccccc3oc2=O)cc1NC(=S)NC(=O)c1ccc2c(c1)OCCO2
    i, 0.05
> O=c1c2ccccc2ncn1/N=C/c1ccccc1
    i, 0.07
> COc1nc(-c2ccccc2)c2cc(Br)ccc2n1
    i, -0.45
> COc1cc(C2C(C#N)=C(N)Oc3n[nH]c(-c4ccncc4)c32)cc(OC)c1OC (configuration not stated)
    i, -0.56
> Cc1ccc(C)c(NC(=O)c2ccccn2)c1
    i, 0.46
> O=c1c2ccccc2nnn1CSc1nnc2ccccn12
    i, -0.58
> CCOC(=O)C1=C(C)NC(C)=C(C(=O)OC)C1c1ccco1 (configuration not stated)
    i, 1.2
> COc1cccc(C(=O)NC2CCCC2)c1
    i, -1.5
> C/C(CC(=O)NCCCN1CCOCC1)=N\NC(=O)COc1ccc(C)cc1
    i, -0.19
> Oc1cc(NCc2cccnc2)ccc1-c1nc2ccccc2o1
    i, -2
> CC(=O)Nc1ccc(C2CC(c3ccc(Cl)cc3)=NN2c2ccccc2)cc1 (configuration not stated)
    i, 0.2

One compound at a time (already shown).
Oc1cc(NCc2cccnc2)ccc1-c1nc2ccccc2o1 in the list: KCNQ2 block: i; KCNQ2 block baseline: -2
COc1cccc(C(=O)NC2CCCC2)c1 in the list: KCNQ2 block: i; KCNQ2 block baseline: -1.5

The list goes on:
Below each compound: KCNQ2 block, KCNQ2 block baseline
> Cc1csc(Cn2c(CN(C)C)nc3ccccc3c2=O)n1
    i, 0.13
> CCCN1CCN(C(=O)CS(=O)(=O)Cc2nc(-c3cccc(OC)c3)oc2C)CC1
    i, 0.69
> COc1cccc(/C(C#N)=C/c2c(-c3ccc(Cl)cc3)nc3c(C)cccn23)c1
    i, -0.76
> O=C(CCCCCNC(=O)N1CCn2c1nc1ccccc12)NCc1ccccc1
    i, 0.41
> CC(=O)Nc1ccc(S(=O)(=O)N2CCN=C2SCc2ccccc2C)cc1
    i, 0.01
> COc1cc(/C=N/NC(=O)Cn2cnc3ccccc3c2=O)ccc1O
    i, -1.1
> CCOc1nc(NCCO)nc(Nc2ccccc2F)n1
    i, 1.4
> COCCCNc1nc(N)c([N+](=O)[O-])c(N2CCCCCC2)n1
    i, 0.38
> CNC(=O)COc1coc(CN2CCN(Cc3ccccc3)CC2)cc1=O
    i, -1.4
> COc1cc(/C=C/C(=O)NCCc2ccc(S(N)(=O)=O)cc2)ccc1OCC#N
    i, 0.29

3 compounds from above, arranged by length of the SMILES, lowest first.
Below each compound: KCNQ2 block, KCNQ2 block baseline
> Brc1ccsc1-c1csc(-c2ccncc2)n1
    i, -0.28
> CC12CCC(C(=O)NCc3cccnc3)(OC1=O)C2(C)C (configuration not stated)
    i, 2.5
> COc1cc(/C=N/NC(=O)Cn2cnc3ccccc3c2=O)ccc1O
    i, -1.1

Next records follow.
Below each compound: KCNQ2 block, KCNQ2 block baseline
> O=C(Nc1ccc2c(c1)OCCO2)C1CC(c2ccc(F)cc2)=NO1 (configuration not stated)
    i, -0.55
> Nc1ccc(C(=O)OCc2nc3cc4ccccc4cc3[nH]2)cc1
    i, -0.36
> COc1ccccc1CCNC(=O)C(=O)NCC1OCCN1S(=O)(=O)c1ccc(OC)c(OC)c1 (configuration not stated)
    i, -0.12
> O=C(NCc1ccco1)C(=O)NCC1OCCN1S(=O)(=O)c1ccc(Br)cc1 (configuration not stated)
    i, -0.54
> Cc1ccc(C(=O)NCCSCc2ccc(Cl)cc2Cl)cc1[N+](=O)[O-]
    i, 0.49
> O=C(Cn1cnc2c(nnn2Cc2ccc(F)cc2)c1=O)NC1CCCC1
    i, -1.3
> O=C(CSc1ccc2ccccc2n1)Nc1ccc(N2CCOCC2)cc1
    i, 2.3
> COc1cc(CN2CCCC(C)C2)ccc1OCc1ccccc1 (configuration not stated)
    i, 1.8
> CC(=O)Nc1sc(N/N=C/c2ccccc2)nc1-c1ccc(C)cc1
    i, -0.24
> CC1CCN(CC(=O)NNC(=O)c2cccc(Br)c2)CC1
    i, -1

The results go on:
structure	KCNQ2 block	KCNQ2 block baseline
Cc1ccccc1NC(=O)CCC(=O)OCCCC(F)(F)C(F)(F)F	i	0.91
CN(C)C(CNC(=O)c1oc2ccccc2c1CSc1ncn[nH]1)c1ccco1 (configuration not stated)	i	0.01
CCOC(=O)c1ccc(COC(=O)CCc2nc(-c3ccccc3)c(-c3ccccc3)o2)cc1	i	0.16
COc1ccc(/C=C2\CCc3ccccc3C2=O)c(OC)c1OC	i	-2.3
Cc1ccc(NC(=S)N(CCN2CCOCC2)Cc2ccccc2F)cc1	i	1.5
CC1(C)CC(=O)C2=C(C1)Oc1ncn(CCCn3ccnc3)c(=N)c1C2c1ccccc1 (configuration not stated)	i	1.4
O=C(/C=C/c1cn(CC(O)CN2CCOCC2)c2ccccc12)c1cccs1 (configuration not stated)	i	5.2
CCOCC(=O)Nc1cc(Cl)ccc1C	i	-0.59
O=C(CN1C(=O)C2CC=CCC2C1=O)Nc1ccc(-c2nnc3n2CCCCC3)cc1 (configuration not stated)	i	0.69
CC1CCC(NC(=O)C2c3ccccc3C(=O)N2CCCN2CCOCC2)CC1 (configuration not stated)	i	1.8
N=c1n(CCN2CCCCC2)c2ccccc2n1CC(O)c1ccc(Cl)c(Cl)c1 (configuration not stated)	i	-2.8
O=S1(=O)CCOC[C@H](CC2CCCCC2)N1Cc1cccc(Cl)c1	i	-1.1

Compounds listed so far that contain a thiophene ring, fused or not (2):
structure	KCNQ2 block	KCNQ2 block baseline
Brc1ccsc1-c1csc(-c2ccncc2)n1	i	-0.28
O=C(/C=C/c1cn(CC(O)CN2CCOCC2)c2ccccc12)c1cccs1 (configuration not stated)	i	5.2

(list continues)
structure	KCNQ2 block	KCNQ2 block baseline
COC(=O)C12CCC(C)(c3nc4ccccc4nc31)C2(C)C (configuration not stated)	i	0.8
NC(=O)c1oc2ccc(Cl)cc2c1N	i	0.28
Cc1ccc(Sc2ncccc2COC(=O)NC(C)C)cc1	i	-1.9
Cc1cc(C)c(NN=c2c(=O)c3ccccc3c2=O)c(C)c1	i	1.7
COc1ccc(C2C(C(=O)c3cccs3)=C(O)C(=O)N2c2cccc(C)n2)cc1OC (configuration not stated)	i	1.1
CCOC(=O)C(Cc1ccccc1)C(=O)Nc1cccc(C)c1 (configuration not stated)	i	4.2
CCc1nnc2n1N=C(c1ccccc1)CS2	i	0.01
CC1=C(C(=O)OCC2CCCO2)C(c2ccccc2)C2=C(CCCC2=O)N1 (configuration not stated)	i	0.71
Cc1ccc(-n2c(-c3cccs3)nc3nc4ccccc4nc32)cc1	i	-0.02
Clc1ccc(-n2nnnc2-c2cnc3ccc(Cl)cc3c2-c2ccccc2)cc1	i	-1.8
CC(=O)Nc1ccccc1OCC(=O)c1cc(C)n(Cc2cccs2)c1C	i	-2.7
O=C(Nc1nc(-c2ccco2)cs1)c1ccccc1	i	-0.25
COc1ccc(-n2c(C)c(C)c3c(N)ncnc32)cc1	i	-1.3
Cc1ccc(S(=O)(=O)N(CC(=O)Nc2ccccc2-c2ccccc2)c2ccc(C)cc2C)cc1	-6*	0.41*
CC1OC2C(OC1C)N(S(C)(=O)=O)CCN2S(C)(=O)=O (configuration not stated)	i	-2.6
CC(C)(CNC(=O)COc1ccccc1Cc1ccccc1)N1CCOCC1	i	-1.2
O=C(CSc1ccccn1)Nc1ccc(Br)cn1	i	-3.6
CCOC(=O)c1ccc(NC(=O)c2nc[nH]c2C(=O)NCc2ccccc2)cc1	i	0.22
COc1ccc(C2SCC(C(=O)NCc3ccc(F)cc3)N2C(C)=O)cc1 (configuration not stated)	i	0.4
O=C(N/N=C/c1cc(Br)c(Br)o1)c1ccc2c(c1)OCCO2	i	0.59
COc1ccc(Cn2c(C3CC3)nc3ccc(NC(=O)c4cccnc4)cc3c2=O)cc1	i	-0.08
CCCOC1CCCN(C(=O)CCc2nnc(-c3ccc4c(c3)OCO4)o2)C1 (configuration not stated)	i	0.47
COC(=O)[C@H](C)NC(=O)NC(C)CCc1ccccc1 (some centres not stated)	i	1.2
Cc1ccccc1OCC(O)Cn1c(=N)n(Cc2ccccc2)c2ccccc21 (configuration not stated)	i	-1
CCOC(=O)c1c(NC(=S)NC(=O)c2cnn(CC)c2)sc2c1CCC(C)C2 (configuration not stated)	i	0.02
Cc1cccnc1NC(=S)NCc1ccco1	i	0.05
Cc1nn(C)c(C)c1S(=O)(=O)NCCc1ccc(Cl)cc1	i	1.1
CCCCCCn1c(SCCN2CCOCC2)nc2c1c(=O)[nH]c(=O)n2C	i	-1.2
Cc1ccc(-c2csc(/C(C#N)=C/Nc3ccc4c(c3)OCCO4)n2)cc1	i	-0.07
COCCCNC(=O)c1ccc2c(c1)nc(C)n2-c1cccc(C)c1	i	0.72
COc1ccc(C(=O)c2sc(Nc3ccc(NC(C)=O)cc3)nc2C)cc1	i	-1.8
CC(C)(C)C(=O)Nc1cc2c3c(c1)CCC(=O)N3CCC2	i	-0.49
C=CCN=C1CC(C)(C)CC(=O)/C1=C(/O)CCC(=O)OC	i	3.5
CC(=O)c1cccc(NC(=O)c2ccc3ccccc3c2)c1	i	-0.09
COC(=O)[C@@H](NC(=O)Nc1ccc2c(c1)OCCO2)C(C)C	i	1.7
O=C(CCn1c(=O)oc2ccccc21)NCc1cccs1	i	-0.2
FC(F)(F)c1cc(NCc2cccs2)n2ncnc2n1	i	-2.3
O=C(C1CCN(S(=O)(=O)c2ccccc2)CC1)N1CCN(Cc2ccc3c(c2)OCO3)CC1	i	-0.13
O=C(CNCc1ccccc1)Nc1ccc(Oc2ccccc2)cc1	i	0.17
CC(=O)NNc1[nH]c2c(c(=O)c1[N+](=O)[O-])c(=O)n(C)c(=O)n2C	i	-0.07
CC1(C)C(=O)C2(CCCCC2)C(=O)OC1c1cccn1-c1ccc([N+](=O)[O-])cc1 (configuration not stated)	i	-0.49
O=C(O)/C=C/c1ccc(-c2cccc(C(F)(F)F)c2)o1	i	-0.16
Cc1ccccc1CN1C(=O)c2ccccc2Sc2ccc(C(=O)NCCN3CCOCC3)cc21	i	0.68
CSc1nn(CCc2ccncc2)c(=S)s1	i	1.2
CC(C)CN(/C=N/c1sc2c(c1C#N)CCCCC2)CC(C)C	-6.2*	1*
O=C(Nc1cccc(-n2cnnn2)c1)c1ccccc1Br	i	-1.9
COc1cc(OC)cc(-c2n[nH]c(=S)n2-c2ccc3c(c2)OCO3)c1	i	1.3
O=C(NCc1nnc(SCC(=O)N2CCCC2)o1)c1ccccc1	i	-1.1
